Compound activity as filed in PubChem BioAssay.
ALR H2O2 inh: inhibitors of human sulfhydryl oxidase ALR. P55789. purified ALR, DTT oxidation, H2O2 HRP-luminol luminescence. inhibition, % (concentration not given with the values). 290,000 tested, 3.8% active;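 active = mean and each replicate at 75% or more; inconclusive = only one of the two met; inactive = neither met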;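 note: stock transfer was 7.5 nL into about 7.5 µL; 0% = neutral wells and 100% = wells with inactivated enzyme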
Target sequence (P55789 whole entry, looked up): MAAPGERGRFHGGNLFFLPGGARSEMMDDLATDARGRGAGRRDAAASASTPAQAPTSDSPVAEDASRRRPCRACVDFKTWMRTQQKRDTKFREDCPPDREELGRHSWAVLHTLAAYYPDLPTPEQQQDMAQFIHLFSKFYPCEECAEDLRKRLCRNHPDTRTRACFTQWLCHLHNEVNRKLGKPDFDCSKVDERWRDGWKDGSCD
FGF22 binding: binders of recombinant human FGF22 by thermal shift; calls only at 9.99 µM; SYPRO orange fluorescence; percent of sucrose octasulfate shift, DMSO zero; 340,000 tested, 1.5% active; AID 651658; Q9HCT0;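 active = melting point raised past a set limit in the mean and every replicate; inconclusive = no clear call; three in four hits are not shown here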
Target sequence (Q9HCT0 whole entry, looked up): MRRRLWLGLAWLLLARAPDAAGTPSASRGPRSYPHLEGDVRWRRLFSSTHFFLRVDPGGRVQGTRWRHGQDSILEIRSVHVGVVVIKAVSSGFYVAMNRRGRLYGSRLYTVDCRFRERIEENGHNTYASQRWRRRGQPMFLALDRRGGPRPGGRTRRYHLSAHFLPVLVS
Beta apoptosis: beta cell apoptosis inhibition; 300,000 tested, 0.8% active; protection from apoptosis, % (no concentration beside the values); INS-1E cytokine-induced death, ATP luminescence, 48 h; percent of positive-control rescue, neutral wells zero;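 active = all replicates at 75% or more, or half of them and the mean; inconclusive = half reach 75% but not the mean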;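 note: 0% = cytokine-treated negative control wells and 100% = positive control rescue; higher means more ATP so stronger rescue from cytokine killing; wells of about 40 µL received 100 nL stock; the first replicate is given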
RanGTP-Imp inh: inhibitors of RanGTP-importin-beta interaction, primary screen, biochemical, FRET, CFP-Ran, YFP-importin-beta, homogeneous. AID 2216. cell-free CFP-Ran/YFP-importin-beta FRET ratio. 300,000 tested, 1.1% active. inhibition, % (no concentration beside the values);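 active = most replicates above 15%; inconclusive = exactly half above 15%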;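 note: 0% = DMSO wells and 100% = Ran loaded with GDP instead of GTP; wells of about 40 µL received 100 nL stock; the first replicate is given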
MLL AF4-AF9 inh: inhibitors of human MLL-AF4/AF9 interaction | AlphaScreen, biotin-AF4 peptide binding to FLAG-AF9 | P42568 | 350,000 tested, 0.47% active | inhibition, % at 10 µM;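 active = every replicate reaching a set inhibition limit, whatever the replicate mean, cut at about 25% in these data; inconclusive = mean inhibition reaches that limit but some replicates miss it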;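 note: 0% = plate neutral control median and 100% = total signal loss; the record names both 10 and 1 µM as test concentration; the first replicate is given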
Target sequence (P42568 whole entry, looked up): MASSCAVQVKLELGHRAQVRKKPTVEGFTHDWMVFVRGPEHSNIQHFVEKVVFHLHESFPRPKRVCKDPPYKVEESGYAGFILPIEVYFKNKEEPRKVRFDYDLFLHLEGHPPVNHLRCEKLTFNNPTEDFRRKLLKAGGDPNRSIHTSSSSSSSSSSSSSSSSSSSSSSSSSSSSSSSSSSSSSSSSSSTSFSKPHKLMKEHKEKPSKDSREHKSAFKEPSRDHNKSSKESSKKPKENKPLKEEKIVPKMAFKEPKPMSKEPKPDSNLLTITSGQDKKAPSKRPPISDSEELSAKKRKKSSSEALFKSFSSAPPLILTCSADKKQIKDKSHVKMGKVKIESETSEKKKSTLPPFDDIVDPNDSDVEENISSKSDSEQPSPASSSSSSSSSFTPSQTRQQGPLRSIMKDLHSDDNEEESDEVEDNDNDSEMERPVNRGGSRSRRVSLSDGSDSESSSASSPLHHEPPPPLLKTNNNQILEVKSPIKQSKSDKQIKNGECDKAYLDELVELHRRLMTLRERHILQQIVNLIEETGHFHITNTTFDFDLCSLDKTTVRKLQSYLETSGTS
Calb FLC: C. albicans growth modulation with fluconazole | C. albicans CaCi-2 (fluconazole-resistant clinical isolate) + fluconazole, Alamar Blue growth, 48 h | growth inhibition, % (concentration not given with the values) | 300,000 tested, 0.57% active | AID 1979;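 active = most replicates above 75%; inconclusive = exactly half above 75%; inactive = most below 75%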;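 note: all wells also contain fluconazole at 8 µg/ml as a sub-toxic cotreatment; 0% = median of DMSO wells and 100% = median of geldanamycin control wells; wells of about 8 µL received 7.5 nL stock; the first replicate is given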
rRNA inh HTS: inhibitors of bacterial rRNA selective over humanized ribosomes | E. coli WT GFP vs humanized-ribosome RFP mutants, fluorescence, 24 h; stronger effect = lower value; DMSO median 0, no signal -100 | GFP signal change (wild-type ribosome), % (test concentration not listed) | 350,000 tested, 1.6% active | AID 720706;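 active = significant combined selectivity score with lowered wild-type GFP, culture density cut under 30%, mutant RFP and density less affected; inactive = any of these conditions unmet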; note: one replicate is shown; some compounds called inactive have numbers as strong as hits
T cruzi inh: T. cruzi replication inhibition. T. cruzi beta-gal in NIH3T3, luminescence, 90 h. inhibition, % (no concentration beside the values). 300,000 tested, 1.4% active. AID 1885;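 active = mean inhibition across valid replicates above about 55%, limit read from the data; inconclusive = mean below that limit but half or more replicates reach it; inactive = mean below it, under half of replicates reach it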;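 note: signal also drops with host cell toxicity which is not excluded here; 0% = plate median of DMSO wells and 100% = zero luminescence signal; higher percent means less beta-gal luminescence so fewer parasites; stock transfer was 50 nL into about 50 µL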
rRNA inh HTS OD600: recorded beside rRNA inh HTS, whose call it bears; OD600 change, %; measured here: OD600 growth;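 optical density of the mix in the first replicate; 0 = DMSO median and -100 = no signal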
rRNA inh HTS RFP: further read-out of rRNA inh HTS, marked with its call; RFP signal change, %; measured here: RFP humanized mutant strains;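 first replicate; 0 = DMSO median and -100 = no signal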
* hit, by the source's call; i = inactive; u = inconclusive; x = not tested or not shown; + = active, no number. This is a subset; rates above refer to the full screens.

SMILES	ALR H2O2 inh	FGF22 binding	Beta apoptosis	RanGTP-Imp inh	MLL AF4-AF9 inh	Calb FLC	rRNA inh HTS	rRNA inh HTS OD600	rRNA inh HTS RFP	T cruzi inh
COCCNC(=O)CSc1nc2ccccc2c(=O)n1CCC(=O)NCCc1ccc(OC)c(OC)c1	-5	i	2	1.3	0.5	2	-3	1	-1.9	1
CCOC(=O)c1sc(NC(=O)c2ccccc2)cc1C	-7	x	11	5.8	x	4	x	x	x	12
CCC1(C)NC(=O)N(CC(=O)Nc2sc3c(c2C(=O)OC)CCCCC3)C1=O (stereo not drawn)	2	i	-8	0.7	3.2	6	x	x	x	12
COc1ccc(CN2CCN(Cc3cccc4nonc34)CC2CCO)c(C)c1C (stereo not drawn)	7	i	-1	1.0	5.5	-20	-7	-7	1.1	66*
O=C(NCCCSc1ccccc1)c1cc(Br)ccc1O	-9	i	-10	-3.0	-0.1	-3	-55	-75	-13	-3
CNC(=O)c1c(O)c2cccc3c2n(c1=O)CCC3	4	i	x	0.1	-1.2	-3	-1	-20	-7.2	-7
CC(=O)N(C(C)=O)N1C(=O)C2C3c4ccccc4C(c4ccccc43)C2C1=O (stereo not drawn)	4	i	-11	-4.9	-12	-19	1	6	-0.5	-1
c1ccc(N2CCN(c3nc(NCc4ccco4)c4ccccc4n3)CC2)cc1	19	x	-2	3.7	x	-1	x	x	x	55*
Cc1cccc(N2C(=O)CC(SC(N)=Nc3ccccc3)C2=O)c1 (stereo not drawn)	3	i	-5	0.8	-3.0	3	-16	-8	-0.7	15
COc1ccc(NS(=O)(=O)c2cccc(C(=O)NNC(=O)c3cccc(NC(C)=O)c3)c2)cc1	6	i	-3	1.8	-0.4	-2	12	14	6.8	-10
COc1ccccc1/C=C/C(=O)OCCN1CCOCC1	-4	x	-8	0.1	4.3	8	x	x	x	-19
COc1ccc(C(C(=O)NC(C)(C)C)N(C(=O)CCC(=O)Nc2cc(C)on2)c2cc(C)cc(C)c2)cc1 (stereo not drawn)	x	i	-7	-3.2	-1.2	10	3	5	-3.6	16
OCCCNCc1ccc(N(c2ccccc2)c2ccccc2)cc1	99*	i	-3	1.1	13	-22	-4	-23	4.2	18
O=c1c2ccccc2[nH]c(=S)n1CC1CCCO1 (stereo not drawn)	x	x	-3	0.3	x	10	x	x	x	-44
Cc1ccc2cc(/C=C3\N=C(c4ccccc4)OC3=O)c(N3CCOCC3)nc2c1	10	x	1	1.9	x	-8	x	x	x	1
O=C(Nc1ccc(N2CCOCC2)cc1N1CCOCC1)c1ccccc1	42	i	-4	x	-0.3	x	x	x	x	x
COc1ccc(/C=C(/NC(=O)c2ccccc2)c2nc3ccccc3[nH]2)cc1OC	-2	x	10	8.2	x	-1	x	x	x	3
COC(=O)c1cc(C(=O)OC)[nH]n1	-7	i	0	20*	0.0	-12	12	20	1.0	-8
Cc1ccc(S(=O)(=O)N2CCN(C(=O)COC(=O)CCOc3ccccc3C)CC2)cc1	-19	i	-1	-0.2	7.4	5	-1	-3	-2.7	-9
CCOC(=O)CSc1nnc(CNC(=O)c2ccc(S(=O)(=O)N3CCOCC3)cc2)n1C	0	i	2	1.5	-1.8	-4	9	4	-1.2	-5
CC(c1ccccc1)N1CC(C(=O)N2CCN(c3ccc(F)cc3)CC2)CC1=O (stereo not drawn)	18	x	0	4.6	x	-7	x	x	x	-4
CCNC(=O)CN(c1ccc(Br)c(C)c1)S(C)(=O)=O	-4	i	-17	0.1	-1.9	-1	13	13	-0.8	-11
C/[N+]([O-])=C\c1coc2ccccc2c1=O	-34	x	x	0.2	x	-3	x	x	x	4
NNC(=O)[C@@H]1C[C@@H]1c1ccccc1	x	i	-1	3.9	0.3	-8	5	2	1.8	1
CC(O)CNCCOc1ccccc1OCc1ccccc1 (stereo not drawn)	x	i	-2	-1.5	-0.4	-4	23	18	2.8	-10
O=C1CSC(c2ccccc2)N1Cc1ccccn1 (stereo not drawn)	-11	i	-5	5.3	0.7	4	12	14	-0.9	-7
CCOc1ccccc1C(=O)OCC(=O)Nc1ccc(N2CCCCC2)cc1	-1	x	0	0.2	x	10	x	x	x	-1
CC/C(=N\NC(=O)c1cc(C)nc2ccccc12)c1ccc(C)s1	0	i	-9	3.1	0.6	-15	5	11	-1.8	1
CCCCCC(=O)Nc1ccc(-c2cn3cccnc3n2)cc1	1	i	0	-3.2	0.4	20	0	-8	-1.6	-22
COc1ccccc1NC(=O)CN(Cc1ccco1)C(=O)c1ccc(-n2nc(C)cc2C)cc1	-14	x	3	u	x	-1	x	x	x	12
CCC1CCCCN1C(=O)CSc1nc(N)c(NC(=O)c2ccco2)c(=O)[nH]1 (stereo not drawn)	85*	i	-9	2.4	9.9	-4	0	8	0.7	-19
Cc1cc(C)n(-c2ccc(C(=O)NC3CCCCC3)cc2)n1	-2	x	1	3.3	-1.1	28	-6	-23	-4.2	11
O=C(NCc1ccc(F)cc1)C1CCN(C(=O)NCc2ccccc2)CC1	13	x	-4	-2.6	x	11	x	x	x	-14
Cc1ccc(CS(=O)(=O)c2nsc(C)c2C#N)cc1	-4	i	-6	0.0	-4.2	u	3	7	0.7	2
COc1ccc(Oc2c(C)nc(SCC(=O)c3ccc(Cl)cc3)[nH]c2=O)cc1	88*	i	-10	0.2	-25	-5	14	3	2.3	-1
Cc1oc2cc3oc(=O)c(CC(=O)O)c(C)c3cc2c1-c1ccccc1	-15	i	-6	5.4	-2.2	0	-43	-65	-20	-14
Fc1ccc(C2c3cccn3CCN2C(=S)Nc2cccc(Br)c2)cc1 (stereo not drawn)	-8	i	-10	0.4	-6.5	8	-54	-79	-17	-36
CC(C)(C)c1nc(CN2CCOCC2)cc(CN2CCOCC2)c1O	11	x	-4	-2.9	x	-13	x	x	x	-7
CCC(C)c1ccccc1NC(=O)CN(C)CCOc1ccc(Cl)cc1 (stereo not drawn)	-39	i	-3	-5.0	2.7	-3	-18	-22	4.3	44
COC(=O)c1c(C)[nH]c(C(=O)C(C)OC(=O)c2ccco2)c1C (stereo not drawn)	-14	i	7	x	-0.8	x	-5	-3	0.5	x
Cc1ccc(C(=O)N/C(=C/c2ccco2)C(=O)N2CCCCC2)cc1	16	i	-5	5.5	4.1	8	x	x	x	7
C=CCNC(=O)c1ccc(CSc2nc3ccccc3s2)cc1	99*	i	-4	7.5	-14	-30	-33	-44	-4.7	-14
CN(CC(=O)Nc1ccccc1Cl)C(=O)Cn1cnc2ccc(Cl)cc2c1=O	3	i	5	x	-0.4	x	6	17	-2.8	x
O=C(CN1C(=O)NC2(CCCCCC2)C1=O)NCc1ccccc1Cl	-1	i	-4	x	1.6	x	-6	-14	-1.5	x
COc1ccc(C2=NN(C(=O)c3ccccc3)C(c3cccc([N+](=O)[O-])c3)C2)cc1 (stereo not drawn)	-5	i	1	2.4	14	1	6	10	3.0	24
CCOCC(=O)Nc1c(C(=O)Nc2ccccc2OC)oc2ccccc12	-2	x	15	0.2	x	1	x	x	x	-9
Cc1oc(-c2cccc(Cl)c2)nc1CS(=O)(=O)CC(=O)NCc1ccco1	-12	+	-4	-3.4	1.1	-2	-3	-6	2.4	-1
Cc1ccc(NC(=O)c2nc[nH]c2C(=O)N[C@@H](C)c2ccccc2)cc1	2	i	0	-1.3	0.6	10	-6	-16	21	18
N#C/C(=C1/CCCCCN1)c1nc2ccccc2[nH]1	-6	x	-4	0.3	x	2	x	x	x	13
Cc1ccc(C(C)C)c(OCC(=O)Nc2sc3c(c2C#N)CC(C)(C)NC3(C)C)c1	1	x	29	u	x	-16	x	x	x	33
COc1ccccc1/C=C/C(=O)OCC(=O)N1CCc2ccccc21	x	i	-3	x	0.2	x	-2	-9	0.4	x
BrC(=C\c1ccccc1)/C=N/N1CCN(c2ccccc2)CC1	9	i	1	1.4	3.4	-17	-2	-8	1.7	-3
O=C(NCc1ccccc1Cl)c1ccc2c(c1)OCO2	-3	i	-3	u	0.2	-27	-6	-3	-4.7	-16
COc1cccc(C(=O)C2CCCN(C(=O)c3ccccc3Cl)C2)c1 (stereo not drawn)	-2	i	-3	-1.1	-0.3	3	-11	-6	4.0	5
c1ccc(CNc2nc(-c3ccccn3)nc3ccccc23)cc1	68	i	106*	-1.2	14	-10	-57	-82	-20	19
CC1CCN(S(=O)(=O)c2ccc(C(=O)Nc3ncccc3O)cc2)CC1	-5	i	-3	8.8	-2.8	-5	18	17	2.7	-2
Cc1ccc(-n2ccnc2SCC(=O)O)c(C)c1	-26	x	-4	u	x	-6	x	x	x	-7
CCCCN(C)C(=O)c1cc2cc3ccc(OC)cc3nc2s1	-9	x	10	-0.8	x	14	x	x	x	-4
Cc1nnc(NC(=O)c2ccc(S(=O)(=O)N(C)Cc3ccccc3)cc2)o1	-2	x	0	0.6	x	87*	x	x	x	-3
CC(=O)Nc1ccc(NC(=O)COC(=O)CCCc2c[nH]c3ccccc23)cc1	94*	i	2	x	u	-4	-1	5	0.6	-2

Following part:
SMILES	ALR H2O2 inh	FGF22 binding	Beta apoptosis	RanGTP-Imp inh	MLL AF4-AF9 inh	Calb FLC	rRNA inh HTS	rRNA inh HTS OD600	rRNA inh HTS RFP	T cruzi inh
CN(Cc1ccccc1)C(=O)c1cccc(NC(=O)Cc2ccc([N+](=O)[O-])cc2)c1	-6	i	-5	x	0.0	x	-7	9	-2.3	x
O=C(OCC(=O)N1CCCC1=O)c1ccc(O)cc1O	3	i	-2	-0.5	1.8	-5	3	-3	3.4	-4
COCCn1nnnc1C(c1cccc(C#N)c1)N1CCCCCC1 (stereo not drawn)	-5	x	-5	-2.8	-14	6	5	3	1.5	-1
O=C(C1CCC(=O)N(C2CCCC2)C1)N1CCC(Oc2ccccc2Cl)CC1 (stereo not drawn)	-3	i	0	2.2	-0.6	-6	x	x	x	5
O=C(OCCOCn1cc(Br)c(=O)[nH]c1=O)c1ccccc1	18	i	x	-1.5	-3.2	-9	-1	6	0.3	-6
CCC(=O)Nc1cc(C(=O)O)ccc1Sc1ccc(C)cc1	-3	i	-10	1.0	-1.1	-7	4	-9	-5.0	-10
COC(=O)c1ccc(NC(=O)c2ccccc2C(=O)Nc2ccc(C(=O)OC)cc2)cc1	-3	i	-2	-1.5	2.8	4	8	2	-1.1	9
O=S1(=O)NC(=NCCc2ccccn2)c2ccccc21	-9	i	-3	-0.5	-2.2	-7	14	13	1.9	-4
Cc1cc2cc(CNC(=S)Nc3ccc(OC(F)F)cc3)ccc2n1C	-6	i	x	0.3	6.4	-6	-12	9	40	15
COc1cc(C(=S)N2CCCC2)cc(Cl)c1O	x	x	4	-0.8	x	25	x	x	x	-11
